From PubChem
PrP UTR inh – suppresses PrP 5' UTR mRNA reporter expression; AID 488862; inhibition, % (test concentration not listed); 340,000 compounds, 0.35% hits; cell-based PrP 5' UTR mRNA reporter, plate reader;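 active means every replicate at 50% or more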;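 further: 0 = median of the neutral control wells; tested in H4 reporter cells; numbers are from one replicate; inactives centre near -14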
Mtb hypoxia rep – Mtb hypoxia fluorescent reporter inhibition; 300,000 compounds, 0.1% hits; fluorescence inhibition, % (no concentration beside the values); AID 1159583; M. tuberculosis hypoxia-regulated fluorescent reporter, fluorescence;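 active means 35 to 45% if threefold the growth effect, above 45% if 1.5-fold the growth effect; inactive means the rest, general growth blockers included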;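 further: wells of about 50 µL received 100 nL stock; 0% = vehicle wells and 100% = reference inhibitor wells; whole bacteria with a GFP reporter of the hypoxia response; strong numbers were not always called active; many hits fall short of the cut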
Autofluor counter – flagged as autofluorescent in microsphere protease counterscreen | compound autofluorescence counterscreen, microsphere flow cytometry; stronger effect = higher value | 360,000 compounds, 3.1% hits | fluorescence intensity (test concentration not listed);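 active means at least 3 SD above the mean of all compounds, about 16000 in these data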;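 further: 100 nL of 1 mM stock went into each well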
ugtP null kill – compounds lethal to S. aureus RN4220 ugtP deletion mutant. 330,000 compounds, 0.54% hits. AID 1259309. OD600 growth, 16 h; some inactives read as strong as hits. growth inhibition, % (test concentration not listed);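 active means z-score under -3 and OD600 up to 0.15 on both plates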;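 further: plate controls were untreated wells for no effect and antibiotic for full effect; wells of about 80 µL received 100 nL stock; the first replicate is given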
RN4220 kill – kills Staphylococcus aureus RN4220 | S. aureus RN4220 growth, OD600, 16 h | 330,000 compounds, 0.33% hits | inhibition, % (concentration not given with the values);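 active means z-score of -3 or lower and OD600 up to 0.18 on both plates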;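 further: plate controls were untreated cells for no effect and reference antibiotic for full effect; stock transfer was 100 nL into about 80 µL; one replicate is shown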
BJeLR viability – BJeLR cell viability loss; BJeLR (HRASV12) viability, CellTiter-Glo ATP luminescence, 48 h; reference of the scale not given here; inhibition, % (concentration not given with the values); 300,000 compounds, 0.17% hits; AID 1554;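 active means replicate mean above 50%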;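 further: 50 nL library stock added to about 25 µL; numbers are from one replicate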
Mtb hypoxia rep growth – further read-out of Mtb hypoxia rep, marked with its call; growth inhibition, %; measured here: M. tuberculosis growth (absorbance);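 0% = vehicle and 100% = reference antibiotic; read after six days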
* hit, by the source's call.

How did CC1CCCCN1C(=O)c1cc(S(=O)(=O)N2CCOCC2)ccc1Cl (configuration not stated) do in these assays?
PrP UTR inh: -23; Mtb hypoxia rep: 17; Autofluor counter: 3495; ugtP null kill: 5; RN4220 kill: 6.1; Mtb hypoxia rep growth: 9

How did CC1(C)CN(C(Cc2ccccc2)C(N)=O)C1=O (configuration not stated) do in these assays?
PrP UTR inh: -18; Mtb hypoxia rep: -4; Autofluor counter: 3699; ugtP null kill: 7; RN4220 kill: 3.5; BJeLR viability: 6; Mtb hypoxia rep growth: 0

How did Cc1cccc(N(CC(=O)NC2CCCCC2)C(=O)c2c(C)noc2C)c1 do in these assays?
PrP UTR inh: -1; Mtb hypoxia rep: 9; Autofluor counter: 3089; ugtP null kill: -5; RN4220 kill: 6.0; BJeLR viability: -1; Mtb hypoxia rep growth: 10

Results for O=C(c1ccccc1OCc1ccccc1Br)N1CCN(c2ncccn2)CC1 ?
PrP UTR inh: -6; Mtb hypoxia rep: 5; Autofluor counter: 16398*; ugtP null kill: 3; RN4220 kill: 3.8; BJeLR viability: 5; Mtb hypoxia rep growth: 5

Results for Cc1cccc(-c2noc(CCCC(=O)NC3CCCC3)n2)c1 ?
PrP UTR inh: -7; Mtb hypoxia rep: -2; Autofluor counter: 5299; ugtP null kill: 0; RN4220 kill: 0.0; BJeLR viability: -5; Mtb hypoxia rep growth: 3

How did O=C(CC(C(=O)O)c1ccc(Cl)cc1)c1ccc(Cl)c(Cl)c1 (configuration not stated) do in these assays?
PrP UTR inh: -15; Mtb hypoxia rep: -10; Autofluor counter: 3716; ugtP null kill: -2; RN4220 kill: 26; BJeLR viability: -6; Mtb hypoxia rep growth: -12

Results for Fc1ccccc1/C=N/Nc1nc2ccccc2o1 ?
PrP UTR inh: -44; Autofluor counter: 4374; BJeLR viability: 13

What do the screens show for `Oc1ccc(C=NNc2cc(N3CCOCC3)nc(N3CCOCC3)n2)c(O)c1`?
Mtb hypoxia rep: 1; ugtP null kill: -13; RN4220 kill: 2.8; Mtb hypoxia rep growth: 4

How did COC(=O)C1C2C=CC3(CN(c4cccc(Cl)c4)C(=O)C13)O2 (configuration not stated) do in these assays?
PrP UTR inh: -4; Autofluor counter: 5506; ugtP null kill: 4; RN4220 kill: -0.1; BJeLR viability: -4

Results for CCOc1cc(NC(=O)c2ccccc2C)c(OCC)cc1NC(=O)C1=Cc2ccccc2OC1 ?
PrP UTR inh: -17; Mtb hypoxia rep: -7; Autofluor counter: 10327; ugtP null kill: -10; RN4220 kill: 8.7; BJeLR viability: 1; Mtb hypoxia rep growth: -6

4 entries picked at random from those above:
Results for O=C(c1ccccc1OCc1ccccc1Br)N1CCN(c2ncccn2)CC1 ?
PrP UTR inh: -6; Mtb hypoxia rep: 5; Autofluor counter: 16398*; ugtP null kill: 3; RN4220 kill: 3.8; BJeLR viability: 5; Mtb hypoxia rep growth: 5

How did CC1(C)CN(C(Cc2ccccc2)C(N)=O)C1=O (configuration not stated) do in these assays?
PrP UTR inh: -18; Mtb hypoxia rep: -4; Autofluor counter: 3699; ugtP null kill: 7; RN4220 kill: 3.5; BJeLR viability: 6; Mtb hypoxia rep growth: 0

Results for CCOc1cc(NC(=O)c2ccccc2C)c(OCC)cc1NC(=O)C1=Cc2ccccc2OC1 ?
PrP UTR inh: -17; Mtb hypoxia rep: -7; Autofluor counter: 10327; ugtP null kill: -10; RN4220 kill: 8.7; BJeLR viability: 1; Mtb hypoxia rep growth: -6

How did COC(=O)C1C2C=CC3(CN(c4cccc(Cl)c4)C(=O)C13)O2 (configuration not stated) do in these assays?
PrP UTR inh: -4; Autofluor counter: 5506; ugtP null kill: 4; RN4220 kill: -0.1; BJeLR viability: -4

More compounds:
What do the screens show for `Oc1ccc(/C=N/Nc2ccc(Cl)nn2)cc1O`?
PrP UTR inh: -32; Autofluor counter: 3217; BJeLR viability: 3

Results for Cc1ccc(S(=O)(=O)NC(=O)NCCCCNC(=O)NS(=O)(=O)c2ccc(C)cc2)cc1 ?
PrP UTR inh: 4; Mtb hypoxia rep: -2; Autofluor counter: 4522; ugtP null kill: -2; RN4220 kill: 6.7; BJeLR viability: 0; Mtb hypoxia rep growth: -1

Results for COc1cccc(C(=O)C2CCCN(Cc3cccn3-c3ccccn3)C2)c1 (configuration not stated) ?
PrP UTR inh: -6; Mtb hypoxia rep: -3; Autofluor counter: 2838; ugtP null kill: 6; RN4220 kill: 6.5; Mtb hypoxia rep growth: 9

How did CCC(C)C(NC(=O)OC(C)(C)C)C(=O)NC(CC(C)C)C(N)=O (configuration not stated) do in these assays?
PrP UTR inh: -5; Mtb hypoxia rep: 3; Autofluor counter: 3030; ugtP null kill: -1; RN4220 kill: 1.9; BJeLR viability: -2; Mtb hypoxia rep growth: 6

Results for CCOC(=O)N1CCC(NC(=O)CN(C)S(=O)(=O)c2cc3c(cc2Cl)NC(=O)CO3)CC1 ?
PrP UTR inh: 0; Mtb hypoxia rep: -6; Autofluor counter: 8304; ugtP null kill: -4; RN4220 kill: -0.4; BJeLR viability: -1; Mtb hypoxia rep growth: 6

How did O=C(Nc1nc2cc3c(cc2s1)OCO3)C1CCCCC1 do in these assays?
PrP UTR inh: -95; Mtb hypoxia rep: 4; Autofluor counter: 5365; ugtP null kill: -9; RN4220 kill: 1.6; BJeLR viability: 10; Mtb hypoxia rep growth: -6

Results for O=C(NCc1csc(-c2ccccc2)n1)c1cc(F)cc2c1OCOC2 ?
PrP UTR inh: -67; Mtb hypoxia rep: -4; ugtP null kill: 4; RN4220 kill: 3.6; BJeLR viability: 7; Mtb hypoxia rep growth: 6

How did Cc1cccc([C@H]2[C@@H]3C=CC[C@@H](C)[C@@H]3C(=O)N2Cc2ccccc2)c1 do in these assays?
PrP UTR inh: -11; Mtb hypoxia rep: 0; Autofluor counter: 3760; ugtP null kill: 3; RN4220 kill: -6.6; Mtb hypoxia rep growth: 2

How did O=C(Nc1ccccc1)N1CCN2C(=O)c3ccccc3C12c1ccccc1 (configuration not stated) do in these assays?
PrP UTR inh: -2; Autofluor counter: 3208; ugtP null kill: 2; RN4220 kill: 2.0; BJeLR viability: 8

What do the screens show for `CCc1ccc(C2NC(c3ccc(CC)cc3)C([N+](=O)[O-])C(C)(C)C2[N+](=O)[O-])cc1` (configuration not stated)?
PrP UTR inh: -12; Mtb hypoxia rep: -3; Autofluor counter: 2563; ugtP null kill: 6; RN4220 kill: -5.2; BJeLR viability: 7; Mtb hypoxia rep growth: 2

How did Cc1cc2c(ncn2C)c(NS(=O)(=O)c2ccc(F)cc2)c1C do in these assays?
PrP UTR inh: -92; Mtb hypoxia rep: -5; Autofluor counter: 2167; ugtP null kill: 3; RN4220 kill: 8.0; BJeLR viability: 6; Mtb hypoxia rep growth: 1

Results for COc1ccc(NC(=O)/C(Cl)=C(/Cl)S(=O)(=O)Cc2ccc(C)cc2)cn1 ?
PrP UTR inh: -21; Autofluor counter: 4043; ugtP null kill: 98*; RN4220 kill: 37; BJeLR viability: 0

How did O=C(c1ccccc1)c1ccc(OCC(=O)N2CCOCC2)cc1 do in these assays?
PrP UTR inh: -26; Mtb hypoxia rep: 1; Autofluor counter: 5428; ugtP null kill: 5; RN4220 kill: 1.7; BJeLR viability: -1; Mtb hypoxia rep growth: 12

How did Cc1ccc(S(=O)(=O)Oc2ccc(/C=C3/C(=N)N4C(=NC3=O)SN=C4S(C)(=O)=O)cc2)cc1 do in these assays?
PrP UTR inh: -19; Mtb hypoxia rep: -1; Autofluor counter: 4449; ugtP null kill: 1; RN4220 kill: 3.6; BJeLR viability: -1; Mtb hypoxia rep growth: -5

What do the screens show for `CCC(C)(C)n1nnnc1CN1CCC(n2c(C)nc3cc(C(F)(F)F)ccc32)CC1`?
PrP UTR inh: -8; Mtb hypoxia rep: -5; Autofluor counter: 2425; ugtP null kill: 15; RN4220 kill: 27; BJeLR viability: -8; Mtb hypoxia rep growth: 0

What do the screens show for `C/C(=N/Nc1ccc(C)cc1)C1(C)N(O)C(C)(C)C(c2ccco2)=[N+]1[O-]` (configuration not stated)?
PrP UTR inh: -12; Autofluor counter: 2637; BJeLR viability: 2

Results for CCC/C=N/Nc1nnc(Cc2ccc(OC)c(OC)c2)c(=O)[nH]1 ?
PrP UTR inh: -16; Autofluor counter: 3739; BJeLR viability: -1

Results for c1ccc(CSc2ccc(-c3cccs3)nn2)nc1 ?
PrP UTR inh: -78; Mtb hypoxia rep: 5; Autofluor counter: 3024; ugtP null kill: 8; RN4220 kill: 4.9; BJeLR viability: 11; Mtb hypoxia rep growth: 0

How did C/C(=N\N1CCCCC1)c1ccccc1O do in these assays?
PrP UTR inh: -1; Autofluor counter: 3068; BJeLR viability: 5

Results for COc1ccc(C2CC(C(F)(F)F)n3nc(C(=O)NCCCn4ccnc4)cc3N2)cc1OC (configuration not stated) ?
PrP UTR inh: -22; Autofluor counter: 5098; ugtP null kill: -1; RN4220 kill: -3.8; BJeLR viability: 0

Results for COc1cccc(CNC(=O)Cn2ccc3cc(S(=O)(=O)N4CCCC4)ccc32)c1OC ?
PrP UTR inh: 6; Mtb hypoxia rep: 3; Autofluor counter: 4299; ugtP null kill: -1; RN4220 kill: -0.2; BJeLR viability: -4; Mtb hypoxia rep growth: -4

What do the screens show for `Cc1ccc(S(=O)(=O)N2CCC(C(=O)N[C@@H](C)C(=O)NCc3ccco3)CC2)cc1`?
PrP UTR inh: -22; Mtb hypoxia rep: 5; Autofluor counter: 9705; ugtP null kill: 3; RN4220 kill: 3.8; BJeLR viability: -6; Mtb hypoxia rep growth: -4

Results for Cc1ccc(-c2nc(N3CCOCC3)s[n+]2-c2ccccc2)cc1 ?
PrP UTR inh: -31; Mtb hypoxia rep: 9; Autofluor counter: 2001; ugtP null kill: -3; RN4220 kill: 5.4; BJeLR viability: -17; Mtb hypoxia rep growth: 9

Results for Cc1ccc(S(=O)(=O)Nc2ccccc2C(N)=O)cc1 ?
PrP UTR inh: -14; Mtb hypoxia rep: -2; Autofluor counter: 17497*; ugtP null kill: 3; RN4220 kill: 2.6; BJeLR viability: -4; Mtb hypoxia rep growth: -14

Results for O=C(c1ccc(N2C(=O)C3CC=C(Cl)CC3C2=O)cc1)N1CCOCC1 (configuration not stated) ?
PrP UTR inh: -24; Mtb hypoxia rep: -14; Autofluor counter: 2646; ugtP null kill: 1; RN4220 kill: -0.2; BJeLR viability: -1; Mtb hypoxia rep growth: -19

What do the screens show for `O=[N+]([O-])c1ccc(N2CCN(Cc3cccc([N+](=O)[O-])c3)CC2)cc1`?
PrP UTR inh: -15; Mtb hypoxia rep: 0; Autofluor counter: 3461; ugtP null kill: 5; RN4220 kill: 6.3; BJeLR viability: 3; Mtb hypoxia rep growth: 1

How did COc1ccc(NS(=O)(=O)c2ccc(Br)s2)cc1OC do in these assays?
PrP UTR inh: -23; Mtb hypoxia rep: 13; Autofluor counter: 7733; ugtP null kill: 1; RN4220 kill: 6.3; BJeLR viability: -1; Mtb hypoxia rep growth: 9

How did Cc1cc(C)c(S(=O)(=O)N2CCN(c3ccc([N+](=O)[O-])c(NCC4CCCO4)c3)CC2)c(C)c1 (configuration not stated) do in these assays?
PrP UTR inh: 3; Mtb hypoxia rep: -13; Autofluor counter: 8601; ugtP null kill: 0; RN4220 kill: 3.5; BJeLR viability: 1; Mtb hypoxia rep growth: -8

What do the screens show for `COc1ccc2cc(-c3cc(C(=O)O)c4ccccc4n3)ccc2c1`?
PrP UTR inh: 43; Autofluor counter: 4555; ugtP null kill: 6; RN4220 kill: 12; BJeLR viability: -3

Results for Cc1nc(NN=Cc2ccc(O)cc2O)cc(N2CCOCC2)n1 ?
Mtb hypoxia rep: 1; ugtP null kill: -4; RN4220 kill: 0.1; Mtb hypoxia rep growth: 4

Results for Cc1cccc(N2CCN(c3nc4ccc(Cl)cc4n4cnnc34)CC2)c1C ?
PrP UTR inh: -43; Mtb hypoxia rep: -1; Autofluor counter: 5098; ugtP null kill: 9; RN4220 kill: 2.7; BJeLR viability: 10; Mtb hypoxia rep growth: 3

How did Cc1cc(OCC(=O)NCC(C)C)cc(C)c1Br do in these assays?
PrP UTR inh: -17; Autofluor counter: 4675; ugtP null kill: 12; RN4220 kill: -9.2; BJeLR viability: 0
